# Screens from PubChem.
# Polio RdRp inh = poliovirus RNA polymerase inhibition | P03300 | poliovirus polymerase elongation, fluorescence polarization; stronger effect = lower value | % elongation, % (compound at 16.7 µg/mL) | 150,000 compounds, 0.66% hits | AID 588519; in the data active = % elongation below about 90%; note: some results filed as inactive read as strong as hits
# Target sequence (P03300 1749-2209 limits assumed): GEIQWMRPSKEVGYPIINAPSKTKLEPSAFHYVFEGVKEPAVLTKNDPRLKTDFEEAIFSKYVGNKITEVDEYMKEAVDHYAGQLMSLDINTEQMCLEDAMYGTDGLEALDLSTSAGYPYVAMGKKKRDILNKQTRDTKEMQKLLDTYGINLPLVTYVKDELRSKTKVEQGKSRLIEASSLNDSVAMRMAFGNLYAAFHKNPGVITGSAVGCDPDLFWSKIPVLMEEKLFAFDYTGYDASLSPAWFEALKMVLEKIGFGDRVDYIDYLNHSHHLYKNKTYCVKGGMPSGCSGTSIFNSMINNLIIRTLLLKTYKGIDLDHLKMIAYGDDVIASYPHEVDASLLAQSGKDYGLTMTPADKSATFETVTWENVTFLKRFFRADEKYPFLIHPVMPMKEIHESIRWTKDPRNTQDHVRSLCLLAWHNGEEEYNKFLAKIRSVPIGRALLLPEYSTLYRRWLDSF
# MbtI inh = blocks the Mycobacterium tuberculosis siderophore enzyme MbtI; 100,000 compounds, 0.89% hits; purified MbtI enzyme, fluorescence intensity read-out; P9WFX0; AID 493033; inhibition, %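 (about 17 µg/mL by stock and volumes)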;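 active = above 50% in both replicates, above 80% if mildly self-fluorescent; inactive = the rest, strongly fluorescent compounds included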;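 note: 0% = mean of negative and 100% = mean of positive controls; one replicate is shown; some compounds called inactive have numbers as strong as hits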
# Target sequence (P9WFX0 whole entry, looked up): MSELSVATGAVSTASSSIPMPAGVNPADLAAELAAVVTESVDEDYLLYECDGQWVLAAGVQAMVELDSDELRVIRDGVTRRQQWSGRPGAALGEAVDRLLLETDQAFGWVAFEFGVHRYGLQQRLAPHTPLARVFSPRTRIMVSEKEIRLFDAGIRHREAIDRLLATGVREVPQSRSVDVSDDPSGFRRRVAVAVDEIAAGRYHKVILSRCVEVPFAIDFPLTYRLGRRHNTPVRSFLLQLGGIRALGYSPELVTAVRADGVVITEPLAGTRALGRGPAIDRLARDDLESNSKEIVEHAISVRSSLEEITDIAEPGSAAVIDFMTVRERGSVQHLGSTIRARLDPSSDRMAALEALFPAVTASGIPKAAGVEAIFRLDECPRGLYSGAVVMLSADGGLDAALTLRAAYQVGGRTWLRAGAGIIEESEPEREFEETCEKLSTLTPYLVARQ
# MenB inh = Mtb MenB enzyme inhibition. AID 540299. inhibition, %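 (about 12 µg/mL by stock and volumes)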. 100,000 compounds, 0.43% hits. MenB enzyme assay, absorbance read-out; some hits fall short of the stated cut. P9WNP5;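 active = mean of two replicates above 30%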;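 note: 0% = no compound and 100% = wells with inactive enzyme; the first replicate is given; strong numbers were not always called active; inactives centre near -10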
# Polio RdRp inh intensity = also measured in Polio RdRp inh; calls as there; % elongation; measured here: total intensity read-out; formula for this scale not given here;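 total fluorescence in place of polarization; lower means less elongation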
# * marks the source's active call; other numbers are inactive results; · = not tested or not shown; & = joins results of further samples.
mol,MbtI inh,Polio RdRp inh intensity,Polio RdRp inh,MenB inh
Cc1cc(NC(=O)c2ccc(COC(=O)Cn3cnnn3)cc2)ccc1Cl,11,100,103,-7
Cc1cc(C)c(C#N)c(SCC(=O)N2CCCC2)n1,7,105,105,-12
O=C(NCCc1ccccc1)C1CCC(=O)N1Cc1ccc(F)cc1 (configuration not stated),-26,102,98,-5
CCOC(=O)c1ccc2nc(C(F)(F)F)nc(N3CC(C)OC(C)C3)c2c1 (configuration not stated),-3,107,103,5
Cn1ccnc1C(=O)c1cc(Cl)nc2ccccc12,-4,99,98,·
CC1(C)CC(=O)c2c(n(S(C)(=O)=O)c3ccc(NS(C)(=O)=O)cc23)C1,0,102,101,-32
S=c1[nH]nc(CCn2c3ccccc3c3ccccc32)n1-c1ccccc1,122,103,103,-43
FC(F)(F)c1ccccc1CNCCc1c[nH]c2ccccc12,·,104,106,-11
COc1cc(NC2c3ccccc3C(=O)N2c2cc(C)ccn2)cc(OC)c1OC (configuration not stated),-5,101,103,-2
Oc1ccc(/C=N/NC(=S)N2CCOCC2)cc1,6,180,152,-88
Cc1ccc2c(COC(=O)CNC(=O)c3ccc(Br)o3)cc(=O)oc2c1,-5,114,106,-10
O=C(Cc1cccs1)Nc1cccc(C(=O)Nc2ccco2)c1,·,98,105,-12
C=CCn1c(SCC(=O)C(C#N)c2nc(C)cs2)nc2ccccc21 (configuration not stated),1,126,117,3
Cn1c(=NC(=O)C2CC2)sc2ccc3ccccc3c21,0,101,103,-31
N#CC1(N2CCN(C3(C#N)CCCC3)CC2)CCCC1,-12,107,102,·
Cc1ccc(-c2nn(C)c(=O)c3ccccc23)cc1CNC(=O)Nc1ccccc1,-5,96,101,-30
Cc1cc(/C=C2/NC(=O)N(Cc3ccccc3F)C2=O)c(C)n1-c1ccc(S(N)(=O)=O)cc1,-173,104,100,-23
N#CCCN1c2ccccc2Sc2ccc(Cl)cc21,15,97,99,15
NC(=O)CSc1nnc(Cc2cc(=O)[nH]c(=O)[nH]2)n1-c1ccccc1,5,108,103,-30
c1cncc(-c2noc(C3CCCCC3)n2)c1,-1,101,102,-6
Cc1ccc(C23CC4CC(CC(C(=O)NN5CCN(CCO)CC5)(C4)C2)C3)cc1,-11,101,99,2
c1ccc(C(Sc2nnc(-c3ccc4c(c3)OCO4)o2)c2ccccc2)cc1,-12,100,103,-56
c1cn2c3c(n1)CCCc3c1cc(C3CCCCC3)ccc12,·,182,89,-7
O=C(O)C1CNC(=O)N1C(=O)OCc1ccccc1 (configuration not stated),-8,101,101,-5
CC1(C)C(=O)N(c2ccccc2)C(=O)c2ccccc21,-8,103,102,·
CN(C)c1ccc(C(C(=O)NCC2CCCO2)N(C(=O)Cn2nnc3ccccc32)c2ccc3c(c2)OCO3)cc1 (configuration not stated),4,98,105,-41
CCC(=O)c1ccc(OC)cc1OC,2,108,98,-8
CCOc1cc(C(NC(=O)c2ccco2)NC(=O)c2ccco2)ccc1OC,-9,·,·,-6
NS(=O)(=O)c1ccc(CCNc2ncnc3nc[nH]c23)cc1,-10,102,101,-12
Cc1ccc(CC2CC(=O)N(C3CCCCC3)C2=O)cc1 (configuration not stated),-20,103,103,-21
O=C(CSc1ncc(C(F)(F)F)cc1Cl)N(CC1CCCO1)C1CCS(=O)(=O)C1 (configuration not stated),-8,97,100,-9
CN(CCCNCC1CC2C=CC1C2)c1ccccc1 (configuration not stated),-8,88,98,-22
COC(=O)c1c(-n2cccc2)sc(C)c1C,15,101,101,-3
CCC1CCCCN1C(=O)COC(=O)c1ccc(Br)o1 (configuration not stated),0,106,104,·
CC1CCCCC1NC(=O)NC(=O)CSc1nc(N)cc(N)n1 (configuration not stated),10,98,100,0
COc1ccc(C(=O)OCC(=O)NCC2CCCCC2)c(OC)c1,1,104,103,-14
O=C(O)CC(NC(=O)c1ccco1)c1ccc(F)cc1 (configuration not stated),1,99,99,22
Cc1nc2ccccc2n1CCN=Cc1c(O)[nH]c(=O)[nH]c1=O,-2,102,99,-21
CC(C)(C)C(=O)C[n+]1cccc(C(N)=O)c1,2,94,99,-5
CN(C)c1ccc(C(=O)Nc2ccc(-c3nc4ccccc4o3)cc2)cc1,-79,100&100,98&100,-19
Cc1ccc(OC(=O)CCc2c(C)nc3ncnn3c2C)cc1,-11,103,100,-32
CCC(=O)Nc1cc(NC(=O)CC)cc(C(=O)O)c1,-2,98,97,-2
CC1C2CC(CN2C(=O)Cc2c[nH]c3ccccc23)CC1(C)C (configuration not stated),7,102,101,17
O=C(Nc1ccc2oc3ccccc3c2c1)C1COc2ccccc2O1 (configuration not stated),15,104,102,-36
O=C(O)C1=C(C(=O)Nc2ccc(F)c(Cl)c2)CCCC1,-1,101,103,17

# Record cards, from the list above. Values in the order: MbtI inh | Polio RdRp inh intensity | Polio RdRp inh | MenB inh
# CC1C2CC(CN2C(=O)Cc2c[nH]c3ccccc23)CC1(C)C (configuration not stated) as listed: 7 | 102 | 101 | 17
# O=C(Nc1ccc2oc3ccccc3c2c1)C1COc2ccccc2O1 (configuration not stated) as listed: 15 | 104 | 102 | -36
# O=C(O)C1=C(C(=O)Nc2ccc(F)c(Cl)c2)CCCC1 as listed: -1 | 101 | 103 | 17
# Cc1nc2ccccc2n1CCN=Cc1c(O)[nH]c(=O)[nH]c1=O as listed: -2 | 102 | 99 | -21

# The listing continues.
mol,MbtI inh,Polio RdRp inh intensity,Polio RdRp inh,MenB inh
c1csc(-c2cnc3n2CCCC3)c1,-17,103,104,·
CCN(CC(=O)Nc1ccc2c(c1)CCC2)CC(=O)Nc1ccc2c(c1)OCCO2,0,108,108,-34
COC(=O)CSc1nnc(-c2ccccc2)o1,12,100,103,-17
N#Cc1c(F)cccc1NCCc1ccccn1,-45,112,106,-19
NC(=O)c1nnc2ccc(Cl)cc2c1N,-2,104,105,10
COc1ccc(-c2cc3ccccn3c2C(=O)c2cccnc2)c(OC)c1,5,104,101,·
O=C(OCC(=O)N1CCCCC1)c1ccccc1O,-39,104,104,·
CCOC(=O)Nc1ccc2ncn(C)c(=O)c2c1,13,101,101,11
CCCCN(C)C(=O)c1cn(C2CCCC2)c(=O)c2c1c1ccccc1n2C,116,103,103,-15
C=CCn1c2ccccc2c2nnc(SCc3ccc4nonc4c3)nc21,·,102,108,-7
Cc1cc(C(F)(F)F)nc2c(Br)c(C(C)(C)C)nn12,-2,96,100,12
N#Cc1c(-c2ccc3c(c2)OCO3)cc(-c2ccccc2)nc1N,·,116,111,-13
COc1cc(OC)c(C(=O)CCCN2CCCC2)c(OC)c1,-4,103,100,3
O=C(c1ccc(Cl)cc1)C1CCN(C(=O)N2CCOCC2)CC1,7,103,100,3
CN(C)C(=N)c1n[nH]nc1SCc1ccccc1,12,105,104,-12

# Some of the entries above, set out differently.
# Under each structure: MbtI inh	Polio RdRp inh intensity	Polio RdRp inh	MenB inh
COc1cc(OC)c(C(=O)CCCN2CCCC2)c(OC)c1
  -4	103	100	3
CCOC(=O)Nc1ccc2ncn(C)c(=O)c2c1
  13	101	101	11
CCN(CC(=O)Nc1ccc2c(c1)CCC2)CC(=O)Nc1ccc2c(c1)OCCO2
  0	108	108	-34

# Remaining list, next part:
mol,MbtI inh,Polio RdRp inh intensity,Polio RdRp inh,MenB inh
C=C(C)CN=C1SC(C(=O)Nc2sc3c(c2C(=O)OC)CCC3)C(N)=C1C(N)=O (configuration not stated),27,113,107,-40
O=S(=O)(Nc1ccc(O)cc1)c1cc(Br)ccc1Br,-11,104,101,·
O=C(c1cc2ccccc2oc1=O)N(Cc1cccs1)Cc1cccs1,4,101,102,-6
CC12CN(C(=O)Cc3ccccc3)CC(C)(CN(C(=O)Cc3ccccc3)C1)C2=O,-10,101,101,4
CC(C)[C@H](NC(=O)c1ccccc1)C(=O)OCc1nnc(-c2ccccc2)o1,-16,98,101,-46
O=C(c1ccc2c(c1)ncn2C1CCCCC1)n1ccnc1,2,108,105,-2
COc1cccc(CC(=O)OCC(=O)c2cccc(Cl)c2)c1,2,97,100,·
CN1C(=O)S/C(=C/c2ccccc2OCc2ccc(C(=O)O)cc2)C1=O,0,100,99,-13
Cc1ccc2c(c1)cc1c(=O)n(CC(=O)N3CCCC3)nc(C)n12,-2,110,106,-11
COC(=O)C1C(=O)C2=C(CC1C)Nc1ccccc1NC2c1ccc(O)c(OC)c1 (configuration not stated),5,109,101,-4
CC1(CC(=O)Nc2ccccc2)NN=C(c2ccccc2)S1 (configuration not stated),·,132,126,-29
CC(=O)N(C1=NCCCCS1)c1ccccc1,-19,101,104,-9
O=C(Nc1ccc(S(=O)(=O)NCc2ccco2)cc1)C1=NN(C2CCS(=O)(=O)C2)C(=O)CC1 (configuration not stated),-4,102,104,9
Cc1cccn2cc(CNC(=O)c3ccco3)nc12,2,106,104,-5
CC1CC(C)CN(S(=O)(=O)c2ccc3c(c2)oc(=O)n3CC(=O)NC(C)c2ccccc2)C1 (configuration not stated),8,98,98,0
O=C(CNC(=O)C1CCCCC1)OCn1nnc2ccccc2c1=O,4,107,104,-16
Cc1ccc(NC(=O)c2ccc3ncsc3c2)cc1,-2,108,106,-17
CC(=O)NC(C1C(=O)CC(C)(C)CC1=O)(C(F)(F)F)C(F)(F)F,-5,106,101,6
Cc1cnc(C(=O)OCC(=O)Nc2ccc3c(c2)OCCO3)cn1,4,102,102,-17
COc1ccc(C2CC(c3cccs3)=NN2C(=O)CSc2nnnn2C2CC2)cc1OC (configuration not stated),-82,100,100,-22
Cc1cccc(NCC(=O)Nc2ccc3c(c2)oc(=O)n3C)c1,-1,105,100,5
O=C(O)/C=C/C(=O)N1CCC(C(=O)c2ccc(F)cc2)CC1,-11,100,103,-41
COC(=O)c1c(NC(=O)C2CC2)sc(C)c1C,-79,104,101,-25
c1ccc2nc3c(nc2c1)Nn1cnnc1S3,1,105,96,-60
CC(=O)Nc1ccc(-c2cn3ccccc3n2)cc1,116,101,101,-5
O=C(CSc1ncnc2sccc12)N(Cc1cccs1)c1ccc2c(c1)OCCO2,8,128,115,-35
Nc1nc(SCC(=O)N2CCCC2)[nH]c(=O)c1NC(=O)c1cccs1,4,104,102,-35
CC(CC(=O)O)n1ccnc1 (configuration not stated),1,101,100,20
C=C(C)CNc1nc(-c2ccccc2)c(-c2ccccc2)s1,22,102,99,-52
N#Cc1ccc(CSc2cccc3cccnc23)cc1,42,102,104,·
O=S1(=O)CC(O)C(Nc2ccc(Cl)cc2)C1 (configuration not stated),·,95,100,-7
O=S(=O)(Nc1ccc(Cl)c(C(F)(F)F)c1)c1cnc[nH]1,2,103,105,-20
CCN(CC)c1ccc(/C=N/O)c(O)c1,·,116,107,3
O=C(Nc1cccc(C(F)(F)F)c1)c1cc[n+]([O-])cc1,15,100,98,1
O=C(O)CCCc1nc(-c2cnc3n(c2=O)CCS3)no1,1,116,101,-12
CC(C)OC(=O)c1sc2nc3c(cc2c1N)CN(C(C)C)CC3,1,107,103,-10
COc1ccc(-c2nnc(SCC(=O)N/N=C/c3ccco3)n2-c2ccccc2)cc1OC,12,103,104,-15
CCCOC(=O)CC1C(=O)NCCN1C(=S)NC(=O)Cc1ccc(Cl)cc1 (configuration not stated),-2,·,·,-21
CCn1c(=O)c(C(=O)CSc2nnnn2C2CC2)c(N)n(Cc2ccccc2)c1=O,-9,102,107,-57
CCC(C)c1ccccc1NC(=O)C(C)NC(C)=O (configuration not stated),14,97,103,-9
Cc1cc(=O)n2c(n1)-c1ccccc1C2,-3,97,101,-30
O=C(O)Cn1c(-c2ccc(Br)cc2)nc(=S)c2c1CCCC2,13,93,101,-42
CN(C)C(=O)CSCc1c(Cl)cccc1Cl,4,46*,34*,-9
Cc1nc2c(c(C)c1CCC(=O)Nc1ccc(OC(F)(F)F)cc1)c(=O)n(C)c(=O)n2C,-6,103,102,0
C/C(=N/N1CCN(c2ccccc2)CC1)c1ccccc1,-3,101,103,-22
CCN1CCN(CCNC(=O)Nc2ccccc2C)CC1,0,98,102,4
CC1(CC(=O)Nc2ccccc2)NC(=S)N(c2ccccc2)N1 (configuration not stated),12,102,99,-12
CC1CCN(C(=O)COc2ccccc2C#N)CC1,3,104,103,-5
COC(=O)c1cc2sccc2n1C(C)C(=O)N1CCCc2ccccc21 (configuration not stated),-7,96,102,-18
O=C(Nc1nnc2n1CCCS2)c1ccccc1,-1,104,103,-9
CC(=O)n1c(O)c(C2=NC(=S)NC2=O)c2ccccc21,-5,99,100,-28
C=CCc1c(C)nc(SC)nc1Nc1ccc(OC)cc1,-49,102,99,16
Cc1sc2nc(-c3ccccc3O)[nH]c(=O)c2c1C,·,82*,75*,-11
CCCSc1nnc(/N=C/N(C)C)s1,·,106,103,0
COC(=O)c1cc(OC(=O)/C=C/c2ccc(C)o2)cc(C(=O)OC)c1,2,101,95,-14
CCOc1cc(CCn2cnc3c([nH]c4ccc(C)cc43)c2=O)ccc1OC,0,105,101,2
Cc1cc(/C=N/n2cnnc2)c(C)n1-c1cccc(I)c1,-17,103,101,-19
